MLL AF4-AF9 inh: inhibitors of human MLL-AF4/AF9 interaction; P42568; AlphaScreen, biotin-AF4 peptide binding to FLAG-AF9; inhibition, % at 10 µM; hit rate 0.47% among 350,000;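 active = every replicate reaching a set inhibition limit, whatever the replicate mean, cut at about 25% in these data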;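 also: 0% = plate neutral control median and 100% = total signal loss; the record names both 10 and 1 µM as test concentration; the first replicate is given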
Target sequence (P42568 whole entry, looked up): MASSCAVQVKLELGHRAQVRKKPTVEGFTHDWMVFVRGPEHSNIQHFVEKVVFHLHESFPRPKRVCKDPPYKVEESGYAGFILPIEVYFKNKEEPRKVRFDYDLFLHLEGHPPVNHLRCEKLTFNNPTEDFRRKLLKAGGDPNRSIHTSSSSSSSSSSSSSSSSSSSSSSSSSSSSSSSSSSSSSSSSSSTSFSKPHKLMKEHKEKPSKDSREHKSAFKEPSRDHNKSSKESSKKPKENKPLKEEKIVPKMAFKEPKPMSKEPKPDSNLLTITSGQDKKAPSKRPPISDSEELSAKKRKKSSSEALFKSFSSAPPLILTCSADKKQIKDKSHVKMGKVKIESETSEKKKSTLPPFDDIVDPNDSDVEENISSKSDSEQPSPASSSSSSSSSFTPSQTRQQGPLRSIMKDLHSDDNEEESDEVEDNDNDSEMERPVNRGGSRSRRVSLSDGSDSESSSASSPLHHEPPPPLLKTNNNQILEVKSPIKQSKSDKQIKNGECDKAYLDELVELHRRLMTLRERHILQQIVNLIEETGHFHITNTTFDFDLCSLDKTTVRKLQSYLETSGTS
Ecoli rRNA inh: inhibitors of bacterial rRNA selective over humanized ribosomes; E. coli WT GFP vs humanized-ribosome RFP mutants, fluorescence, 24 h; stronger effect = lower value; DMSO median 0, no signal -100; GFP signal change (wild-type ribosome), % (concentration not given with the values); hit rate 1.6% among 350,000; AID 720706;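 active = significant combined selectivity score with lowered wild-type GFP, culture density cut under 30%, mutant RFP and density less affected; inactive = any of these conditions unmet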; also: one replicate is shown; some compounds called inactive have numbers as strong as hits
Ecoli rRNA inh OD600: further read-out of Ecoli rRNA inh, marked with its call; OD600 change, %; measured here: OD600 growth;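 optical density of the mix in the first replicate; 0 = DMSO median and -100 = no signal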
Ecoli rRNA inh RFP: recorded beside Ecoli rRNA inh, whose call it bears; RFP signal change, %; measured here: RFP humanized mutant strains;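 first replicate; 0 = DMSO median and -100 = no signal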
An asterisk follows results filed as active; & = joins results of further samples. Only part of the results is shown; count on the stated rates, not on these rows.

SMILES	MLL AF4-AF9 inh	Ecoli rRNA inh	Ecoli rRNA inh OD600	Ecoli rRNA inh RFP
N#C[C@H]1[C@H](c2ccccc2C2=CCCCC2)[C@@H](CO)N1S(=O)(=O)c1cccc(F)c1	0.9	-30	-61	5.5
O=C(Nc1cc(F)ccc1F)N1CC(=O)N2[C@@H](CO)[C@@H](c3ccc(-c4cccnc4)cc3)[C@@H]2C1	-4.5	1	0	2.5
CCNC(=O)[C@@H]1[C@@H](CO)[C@@H]2Cn3c(ccc(-c4ccccc4)c3=O)[C@H]1N2C(=O)CC1CC1	-5.8	0	6	-1.4
O=C(C[C@@H]1CC[C@H](NC(=O)Nc2ccccc2F)[C@H](CO)O1)NCc1ccc(F)cc1	-0.9	-1	6	1.2
C/C=C/c1ccc([C@H]2[C@H]3CN(Cc4ccc(F)cc4)CC(=O)N3[C@H]2CO)cc1	4.6	-2	-10	2.0
CCCNC(=O)N1CC2(C1)CN(S(C)(=O)=O)[C@@H](CO)c1c2c2ccc(OC)cc2n1C	-2.1	5	17	-0.8
O=C(Nc1ccc(F)cc1)N1CC(=O)N2[C@@H](CO)[C@H](c3ccc(C#Cc4cccnc4)cc3)[C@@H]2C1	-1.3	-2	3	4.1
CC(C)CC#Cc1ccc([C@H]2[C@@H](CO)N3C(=O)CN(C(=O)c4ccc5c(c4)OCO5)C[C@@H]23)cc1	1.3	-21	-53	29
COc1cccc(-c2ccc([C@@H]3[C@@H](CO)N4C(=O)CN(C(=O)C5CC5)C[C@@H]34)cc2)c1	-2.0	-1	8	-2.5
Cc1ccc(S(=O)(=O)Nc2ccc3c(c2)C(=O)N([C@@H](C)CO)C[C@H](C)[C@H](CN(C)Cc2ccc(C(=O)O)cc2)OCCCC[C@@H](C)O3)cc1	-3.9	2	1	0.0
COC(=O)C[C@H]1CC[C@@H]2[C@H](COc3ccc(NC(=O)c4ccc(OC)cc4)cc3C(=O)N2C)O1	-2.0	-4	-1	-2.0
COc1cccc(-c2ccc(C3[C@H]4CNC[C@@H]3N4CC3CCOCC3)cc2)c1 (stereo partly specified)	3.1	9&1	7&20	1.0&-0.1
CCS(=O)(=O)N1CC(=O)N2[C@H](CO)[C@@H](c3ccc(C#CC4CC4)cc3)[C@H]2C1	4.1	2	2	-8.1
O=C(c1cnccn1)N1CC(=O)N2[C@H](C1)[C@@H](c1ccc(C3=CCCCC3)cc1)[C@@H]2CO	-3.2	3	-22	1.9
CCNC(=O)[C@@H]1[C@@H](CO)[C@@H]2Cn3c(cccc3=O)[C@H]1N2Cc1cc(F)ccc1F	-4.4	1	2	2.5
N#C[C@H]1[C@@H](c2ccc(C#Cc3ccccc3F)cc2)[C@H](CO)N1C(=O)C1CCCC1	-2.2	-33	-60	-0.7
CCNC(=O)C[C@H]1CC[C@@H]2[C@H](COc3ccc(NC(=O)Nc4ccc(F)cc4)cc3C(=O)N2C)O1	-0.5	-1	-7	-2.1
COc1ccc(CN(C)C[C@@H]2Oc3ccc(NC(=O)Nc4c(C)noc4C)cc3C(=O)N([C@@H](C)CO)C[C@H]2C)cc1	-4.1	1	12	-0.4
CC(C)C#Cc1ccc([C@@H]2[C@@H](CO)N3C(=O)CN(C(=O)c4ccc5c(c4)OCO5)C[C@@H]23)cc1	0.7	1	-9	1.9
COc1ccc(C#Cc2ccc3c(c2)[C@@H]2[C@@H](CCN2C(=O)C2CCCC2)[C@H](CO)N3)cc1	12	-2	5	-4.0
CNC[C@@H]1Oc2ccc(NC(=O)C3CC3)cc2CC(=O)N([C@H](C)CO)C[C@@H]1C	-5.0	4	8	-0.1
C[C@H](CO)N1C[C@H](C)[C@H](CN(C)C)Oc2ncc(C#Cc3ccccc3F)cc2C1=O	11	7	2	0.2
O=C(C1CCCC1)N1CC(=O)N2[C@H](C1)[C@H](c1ccc(C#CC3CCCC3)cc1)[C@@H]2CO	4.2	-49	-71	-1.9
C[C@H](CO)N1C[C@H](C)[C@H](CN(C)Cc2cccnc2)Oc2ncc(-c3cccc(F)c3)cc2C1=O	-1.0	-4	-6	-3.1
O=C(c1cccc(F)c1)N1CC(=O)N2[C@@H](CO)[C@@H](c3ccc(C#Cc4ccc(F)cc4)cc3)[C@@H]2C1	-0.9	-57	-64	-9.4

Other structures:
SMILES	MLL AF4-AF9 inh	Ecoli rRNA inh	Ecoli rRNA inh OD600	Ecoli rRNA inh RFP
CCC(=O)N(C)C[C@@H]1Oc2cc(-c3cncnc3)ccc2S(=O)(=O)N([C@H](C)CO)C[C@@H]1C	-0.8	2	15	-2.7
C[C@H](CO)N1C[C@H](C)[C@H](CN(C)Cc2ccncc2)Oc2c(NS(C)(=O)=O)cccc2C1=O	-3.1	4	10	0.1
CC(C)CC#Cc1ccc([C@@H]2[C@@H](CO)N3C(=O)CN(C(=O)Cc4ccccc4)C[C@H]23)cc1	0.7	-53	-69	-7.2
CN1C[C@@H]2[C@H](c3ccccc31)[C@@H](CO)N2C(=O)Nc1ccc(F)cc1	0.8	-9	-4	1.3
COCC(=O)N1[C@H](CO)[C@@H]2c3ccccc3N(C(=O)c3ccccc3)C[C@@H]21	3.5	2	3	-2.2
C[C@@H]1CN([C@H](C)CO)C(=O)c2cccc(NS(=O)(=O)c3ccc(Cl)cc3)c2O[C@H]1CN(C)CC1CC1	-3.0	0	1	-0.3
CCC(=O)N1CC(=O)N2[C@H](C1)[C@H](c1ccc(-c3ccc(C#N)cc3)cc1)[C@@H]2CO	-1.2	3	9	-3.9
O=C(C1CCC1)N1CC(=O)N2[C@H](C1)[C@@H](c1ccc(-c3ccccc3F)cc1)[C@@H]2CO	-0.7	5	-20	5.9
O=C(C1CCCC1)N1CC(=O)N2[C@H](CO)[C@H](c3ccc(C#Cc4cccc(F)c4)cc3)[C@H]2C1	-0.6	-45	-67	-5.3
O=C(Cc1ccccn1)N1CC(=O)N2[C@H](CO)[C@@H](c3ccc(-c4ccc(F)cc4)cc3)[C@H]2C1	-1.1	1	5	-5.3
O=C(C[C@H]1C[C@@H]2c3cc(NC(=O)Nc4ccccc4)ccc3O[C@@H]2[C@H](CO)O1)NCC(F)(F)F	-0.5	0	-3	1.2
CCS(=O)(=O)N1CCC2(CC1)CN(C(=O)CN1CCOCC1)[C@@H](CO)c1c2c2ccc(OC)cc2n1C	2.1	-1	-9	-0.4
CNC(=O)C[C@@H]1CC[C@H]2[C@@H](COc3ccc(NC(=O)Nc4ccccc4OC)cc3C(=O)N2C)O1	-0.9	1	1	-2.1
CC(=O)N[C@@H]1CC[C@H](CCNC(=O)C2CCCCC2)O[C@H]1CO	-9.9	1	8	-0.2
O=C(C1CC1)N1CC(=O)N2[C@H](CO)[C@@H](c3ccc(-c4ccccc4F)cc3)[C@H]2C1	5.1	-2	12	-1.2
CC(=O)N1[C@H](CO)[C@H](c2ccc(-c3ccccc3)cc2)[C@@H]1CNC(=O)NC(C)C	-2.2	-4	-10	-0.7
CN(C)CCCNC(=O)C[C@H]1CC[C@H]2[C@H](COc3ccc(NC(=O)c4cccc(F)c4)cc3C(=O)N2C)O1	-1.3	2	6	-2.4
Cc1ccc(-c2ccc(C3[C@H]4CNC[C@@H]3N4S(=O)(=O)c3cccc(C)c3)cc2)cc1 (stereo partly specified)	-2.0&1.9	-30&-51	-28&-66	0.4&-3.8
CCCNC(=O)N1CC2(CN(C)C2)c2c([nH]c3cc(OC)ccc23)[C@H]1CO	0.9	2	14	1.0
O=C(Nc1ccc(F)cc1)N1CC(=O)N2[C@H](C1)[C@H](c1ccc(Br)cc1)[C@@H]2CO	-1.7	0	5	-2.8
CCCC(=O)N1CC2(C1)CN(C(=O)COC)[C@H](CO)c1c2c2ccc(OC)cc2n1C	-5.2	1	15	-3.2
CCCNC(=O)[C@H]1[C@H](CO)[C@H]2Cn3c(ccc(-c4ccc(OC)cc4)c3=O)[C@H]2N1CC	-2.6	0	3	0.3
CCCN1C[C@H](C)[C@H](OC)CN(C)C(=O)c2cc(NC(=O)NC3CCCC3)ccc2OC[C@H]1C	-1.0	-1	8	2.1
C[C@H]1CCCCO[C@H](CN(C)Cc2ccc3c(c2)OCO3)[C@@H](C)CN([C@@H](C)CO)C(=O)c2cc(NS(=O)(=O)c3ccc(F)cc3)ccc2O1	6.0	3	9	1.0
COc1ccc2c3c([nH]c2c1)[C@@H](CO)N(C(=O)NC(C)C)CC31CCN(C(=O)c2cnccn2)CC1	-1.3	4	8	-2.9

Additional entries.
SMILES	MLL AF4-AF9 inh	Ecoli rRNA inh	Ecoli rRNA inh OD600	Ecoli rRNA inh RFP
CCS(=O)(=O)N1CC2(C1)[C@H](c1ccccc1)[C@H](CO)N2C(=O)c1ccccc1	-1.0	-1	13	0.0
COc1ccc2c3c([nH]c2c1)[C@H](CO)N(C(C)=O)CC31CCN(C(=O)Nc2ccc(F)cc2F)CC1	1.8	-2	-8	-0.8
CCCN(C[C@H]1N[C@H](CO)[C@@H]1c1ccccc1)C(=O)COC	-3.7	0	0	0.2
O=C(C1CCC1)N1CC2(C1)[C@H](c1ccccc1)[C@H](CO)N2Cc1ccccc1F	-1.6	-5	-16	2.6
CCCNC(=O)N1CC2(CCN(C(=O)C3CCOCC3)CC2)c2c([nH]c3cc(OC)ccc23)[C@@H]1CO	-15	3	7	-0.8
Cc1noc(C)c1NC(=O)Nc1ccc2c(c1)C(=O)N([C@H](C)CO)C[C@H](C)[C@@H](CN(C)Cc1ccc(Cl)c(Cl)c1)O2	1.4	-3	-4	2.1
O=C(C1CCCCC1)N1CC(=O)N2[C@H](CO)[C@@H](c3ccc(C#Cc4cccc(F)c4)cc3)[C@@H]2C1	-3.4	-8	-13	26
C[C@@H](NC(=O)[C@@H]1[C@@H](CO)[C@@H]2Cn3c(ccc(-c4cccc(F)c4)c3=O)[C@@H]2N1C)c1ccccc1	-3.3	-6	-12	3.1
O=C(C[C@H]1CC[C@H](NC(=O)c2ccncc2)[C@@H](CO)O1)NCc1ccncn1	-3.6	2	7	-0.9
C[C@H]1CN([C@@H](C)CO)C(=O)c2cccc(NC(=O)C3CC3)c2O[C@H]1CN(C)S(=O)(=O)c1ccc(F)cc1	0.3	1	4	0.0
O=C(Nc1ccc(F)cc1)N1C[C@@H]2N[C@H](C1)C2c1ccc(-c2cccnc2)cc1 (stereo partly specified)	-1.8&-1.1	7&6	15&6	0.6&-2.1
CN1CCCCN2[C@@H](CO)[C@H](c3ccc(-c4ccc(F)cc4)cc3)[C@@H]2C1	3.4	-3	3	2.8
COc1ccccc1NC(=O)N1[C@@H]2CNC[C@H]1C2c1ccc(-c2ccccc2OC)cc1 (stereo partly specified)	4.0&3.8	0&5	3&1	4.8&0.7
COc1ccc2c3c([nH]c2c1)[C@@H](CO)N(C(=O)c1ccccn1)CC31CCN(C(=O)C2CC2)CC1	1.4	1	2	-0.9
C[C@@H]1CN([C@H](C)CO)C(=O)c2cc(NS(=O)(=O)c3ccccc3)ccc2O[C@@H](C)CCCCO[C@H]1CN(C)Cc1ccc2c(c1)OCO2	3.5	5	5	-1.7
O=C(C1CCC1)N1CC(=O)N2[C@H](CO)[C@@H](c3ccc(C#Cc4cccc(F)c4)cc3)[C@H]2C1	5.8	-30	-27	-2.6
COc1cccc(CN(C)C[C@H]2OCc3ccccc3-c3c(n(C)c4ccccc34)C(=O)N([C@H](C)CO)C[C@@H]2C)c1	11	-28	-32	23
C[C@@H]1CCCCO[C@H](CN(C)S(=O)(=O)c2cccs2)[C@H](C)CN([C@H](C)CO)C(=O)c2cc(NS(=O)(=O)c3ccccc3)ccc2O1	-6.5	-4	2	2.1
O=C(NC1CCCC1)N1CC(=O)N2[C@H](CO)[C@H](c3ccc(-c4cccc(F)c4)cc3)[C@@H]2C1	-0.3	-7	-15	1.3
Cc1noc(C)c1S(=O)(=O)Nc1ccc2c(c1)C(=O)N([C@@H](C)CO)C[C@@H](C)[C@H](CN(C)C(=O)c1ccccc1)OCCCC[C@H](C)O2	-9.5	-3	-3	-2.6
O=C(O)C[C@H]1CC[C@H](NC(=O)CCN2CCCCC2)[C@@H](CO)O1	-3.1	2	7	-0.6
COc1ccc2c3c(n(C)c2c1)[C@@H](CO)N(C(=O)C1CCC1)CC31CCN(CC2CCCC2)CC1	12	-4	-7	-0.5

From PubChem
